From PubChem BioAssay
Arbovirus inh: antivirals against arbovirus infection, primary screen, cell-based, full library, 10K replicate subset. arbovirus infection cell-based antiviral screen. inhibition, % at 10 µM. hit rate 0.37% among 200,000;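 active = inhibition from about 30%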;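 also: bluetongue infection of BSR cells; cell survival read as ATP light after 72 h; 0% = infected wells without compound and 100% = uninfected wells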
Mtb bLac sens: beta-lactam sensitization of Mtb H37Rv, H37Rv. M. tuberculosis H37Rv growth with meropenem, percent inhibition; hits of this screen are not shown here. inhibition, % at 25 µM. hit rate 0.27% among 330,000. AID 434955, 2010;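 active = about 74% or more and at least 40 points above the plate without the antibiotic, then above 30% in a dose series; inconclusive = first-round hits that could not be retested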;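 also: growth measured after seven days incubation then overnight dye step; 0% = bacteria only wells and 100% = bacteria with antibiotic; twin plates without the antibiotic show which effects depend on it; some results filed as inactive read as strong as hits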
Mtb growth: M. tuberculosis H37Rv growth inhibitors, H37Rv strain (AID 1626) | one-dose inhibition, % at 10 µM; IC50 in µM for titrated hits | hit rate 0.95% among 220,000 | M. tuberculosis H37Rv growth inhibition; higher % means a stronger effect;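 active = confirmed in a dose series; inconclusive = inhibition above 80% but not taken into the dose series; inactive = below 80% or under 30% at every dose of the series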;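 also: bacteria incubated seven days before Alamar blue readout; 0% = bacteria only wells and 100% = bacteria with antibiotic wells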
RecA splice inh: Mtb RecA intein splicing inhibitors, primary screen, biochemical, fluorescence, HTS. Protein RecA (Mycobacterium tuberculosis (strain ATCC 25618 / H37Rv)), P9WHJ3. cell-free RecA intein splicing. inhibition, %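 (about 9 µM by stock and volumes)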. hit rate 0.75% among 290,000. AID 2221, 2009; in the data active = inhibition above about 30%; inconclusive = no clear call, values can overlap the other calls;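 also: 0% = vehicle wells and 100% = reference inhibitor control wells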
Target sequence (P9WHJ3 whole entry, looked up, canonical isoform): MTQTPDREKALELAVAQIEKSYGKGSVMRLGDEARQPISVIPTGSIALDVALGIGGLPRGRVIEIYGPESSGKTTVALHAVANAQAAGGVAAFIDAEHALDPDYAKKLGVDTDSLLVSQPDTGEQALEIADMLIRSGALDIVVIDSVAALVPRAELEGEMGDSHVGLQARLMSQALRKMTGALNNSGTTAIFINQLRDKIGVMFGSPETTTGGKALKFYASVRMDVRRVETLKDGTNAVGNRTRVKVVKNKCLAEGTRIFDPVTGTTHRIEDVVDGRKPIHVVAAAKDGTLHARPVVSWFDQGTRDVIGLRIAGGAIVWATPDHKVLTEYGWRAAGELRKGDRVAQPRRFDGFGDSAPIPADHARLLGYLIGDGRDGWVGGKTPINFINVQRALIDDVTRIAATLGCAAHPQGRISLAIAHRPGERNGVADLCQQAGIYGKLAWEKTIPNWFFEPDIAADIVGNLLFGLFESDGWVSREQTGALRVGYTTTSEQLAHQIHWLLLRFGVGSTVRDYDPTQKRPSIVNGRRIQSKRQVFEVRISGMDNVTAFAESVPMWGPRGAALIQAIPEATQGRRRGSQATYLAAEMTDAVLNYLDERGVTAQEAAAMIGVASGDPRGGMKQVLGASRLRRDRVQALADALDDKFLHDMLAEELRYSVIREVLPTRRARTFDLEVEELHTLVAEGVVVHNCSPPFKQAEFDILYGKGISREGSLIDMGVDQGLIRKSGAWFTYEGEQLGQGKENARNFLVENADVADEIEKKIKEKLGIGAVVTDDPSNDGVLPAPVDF
YopH inh: YopH tyrosine phosphatase inhibitors, primary screen, biochemical, fluorescence Ex485/Em525. inhibition, %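 (about 10 µM by stock and volumes)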. hit rate 0.16% among 140,000. YopH tyrosine phosphatase [Yersinia enterocolitica];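 active = inhibition of 50% or more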;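 also: controls were vehicle for no effect and minimum signal wells for full effect; inactives centre near -20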
Arbovirus inh repeat: second read-out of Arbovirus inh, no call of its own (marks repeat the call); inhibition, %; measured here: 10K subset replicate screen; many hits read low in the repeat;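 first of two repeat runs on a subset; 0% = infected and 100% = uninfected wells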
* = called active by the depositor. This is a subset (hit frequency here may not be typical).

How did CCOC(=O)C1CCN(C(=O)Nc2c(-c3ccccc3)noc2C)CC1 do in these assays?
Mtb bLac sens: -7; Mtb growth: -8%; RecA splice inh: 0.6

How did O=c1cc(O)n(-c2ccccc2F)c(=S)[nH]1 do in these assays?
Arbovirus inh: 5; Mtb bLac sens: 4; Mtb growth: -10%; RecA splice inh: 0.8; YopH inh: 1

How did COc1ccc(C(=O)O/N=C(/C)c2cccs2)cc1 do in these assays?
Arbovirus inh: 1; Mtb bLac sens: 81; Mtb growth: 16%; RecA splice inh: 0.2; YopH inh: -18

What do the screens show for `O=C1c2ccccc2C(=O)N1CC(O)Cn1nnc2ccccc21` (configuration not stated)?
Arbovirus inh: 7; Mtb bLac sens: -8; Mtb growth: -8%; RecA splice inh: 0.4; YopH inh: -20

How did CCCN1CCCC(C(=O)c2cc(C)c(OC)c(C)c2)C1 (configuration not stated) do in these assays?
Mtb bLac sens: -3; RecA splice inh: 1.1

Results for CC(=O)N(c1ccc(Br)cc1)C1C=CS(=O)(=O)C1 (configuration not stated) ?
Arbovirus inh: 1; Mtb bLac sens: -1; Mtb growth: -7%; RecA splice inh: 0.0; YopH inh: -20; Arbovirus inh repeat: 3

What do the screens show for `Cc1cc(=O)oc2cc(OCC(=O)NCCN3CCOCC3)ccc12`?
Mtb bLac sens: -10; RecA splice inh: -3.6

What do the screens show for `O=C(Nc1ccc(N2CCN(C(=O)c3cccs3)CC2)cc1)c1ccco1`?
Mtb bLac sens: -11; RecA splice inh: -1.1

How did CC(=O)Nc1c(C)ccc(CNC(=O)COc2ccc(F)cc2)c1C do in these assays?
Arbovirus inh: 5; Mtb bLac sens: -1; Mtb growth: 1%; RecA splice inh: 0.8

What do the screens show for `Cc1cccc(NC(=O)CN2C(=O)S/C(=C\c3ccc(-c4cccc(C(=O)O)c4C)o3)C2=O)c1`?
Arbovirus inh: -9; Mtb bLac sens: -7; Mtb growth: 2%; RecA splice inh: -30

How did Cc1ccccc1S(=O)(=O)Nc1nc2ccccc2nc1NCCO do in these assays?
Arbovirus inh: 4; Mtb bLac sens: 0; Mtb growth: -7%; RecA splice inh: -3.7; YopH inh: -32

Results for CC1(C)NC(=O)N(CC(O)COc2ccc(-c3ccc(C#N)cc3)cc2)C1=O (configuration not stated) ?
Arbovirus inh: 11; Mtb bLac sens: -17; Mtb growth: 2%; RecA splice inh: -0.9; YopH inh: -45

How did COc1ccccc1CNS(=O)(=O)c1ccc2c(c1)CC(=O)N2C do in these assays?
Mtb bLac sens: 6; RecA splice inh: -1.8

What do the screens show for `Cc1oc(=O)c(NC(=O)c2ccc(Cl)cc2)cc1C(=O)c1ccccc1`?
Arbovirus inh: -28; Mtb bLac sens: 2; Mtb growth: 8%; RecA splice inh: -1.8; YopH inh: 8

Results for COc1cccc(C(=O)N2CCN(C(=O)COc3ccc4ccccc4c3)CC2)c1 ?
Mtb bLac sens: -1; RecA splice inh: -1.8

What do the screens show for `CC(C(O)c1ccccc1)N(C)CCn1cnc2c1c(=O)n(C)c(=O)n2C` (configuration not stated)?
Arbovirus inh: 3; Mtb bLac sens: -86; Mtb growth: -3%; RecA splice inh: 0.5

How did CCOc1ccc(S(=O)(=O)Nc2ccc(C(=O)NCCCN3CCOCC3)cc2)cc1 do in these assays?
Mtb bLac sens: -5; RecA splice inh: -1.3

What do the screens show for `CC(=O)Cn1ncc(N2CCOCC2)cc1=O`?
Arbovirus inh: -1; Mtb bLac sens: 6; Mtb growth: 2%; RecA splice inh: 2.3

What do the screens show for `COc1ccccc1C(=O)N(CCC1CCCN1C)c1nc2ccccc2s1` (configuration not stated)?
Arbovirus inh: 11; Mtb bLac sens: -5; Mtb growth: 6%; RecA splice inh: -1.9

What do the screens show for `CCCCCCn1c(NCC)nc2c1c(=O)[nH]c(=O)n2C`?
Arbovirus inh: 4; Mtb bLac sens: -4; Mtb growth: -3%; RecA splice inh: 0.0; YopH inh: -49

What do the screens show for `CCCSC1=N/C(=C/c2ccsc2)C(=O)N1c1ccccc1`?
Arbovirus inh: 6; Mtb bLac sens: 59; Mtb growth: 8%; RecA splice inh: -0.9; YopH inh: -18

Results for Cc1ccc(C2N(c3ccc(Cl)c(Cl)c3)C(=O)C3CCCN32)o1 (configuration not stated) ?
Arbovirus inh: -7; Mtb bLac sens: -3; Mtb growth: -1%; YopH inh: -18

Results for CCOc1ccc(CNS(=O)(=O)c2ccc(-c3ccc(=O)[nH]n3)o2)cc1OC ?
Mtb bLac sens: -1; RecA splice inh: -2.0

Results for Cc1cc(C(=O)NC2=NCCS2)c2ccccc2n1 ?
Arbovirus inh: 1; Mtb bLac sens: 11; Mtb growth: 8%; RecA splice inh: -2.3

Results for S=C(NCc1ccco1)N1CCC(c2nc3ccccc3o2)CC1 ?
Arbovirus inh: 8; Mtb bLac sens: 5; Mtb growth: -3%; RecA splice inh: 2.8

What do the screens show for `CCN1CCN(C(=O)c2cc(=O)c3cc(C)ccc3o2)CC1`?
Mtb bLac sens: 2; RecA splice inh: 0.4

How did O=C(NCCc1ccccc1)c1cnc2sccn2c1=O do in these assays?
Arbovirus inh: 2; Mtb bLac sens: -7; Mtb growth: -5%; RecA splice inh: 1.9; YopH inh: -17

How did C/C=N/N(c1ccccc1)c1ccccc1 do in these assays?
Mtb growth: -5%; RecA splice inh: 5.7

Results for CCOC(=O)C1=C(C)N=C2SC(C(=O)OC)=CC(=O)N2C1c1ccc(F)cc1 (configuration not stated) ?
Arbovirus inh: 5; Mtb bLac sens: 47; Mtb growth: 0%; RecA splice inh: 1.2; YopH inh: 18

What do the screens show for `COc1ccc(C[C@H]2CN3C(=NC[C@@H]3C(C)C)N2C[C@H](C)NC(=O)c2ccc(C)c(Br)c2)cc1`?
Arbovirus inh: -14; Mtb bLac sens: 61; Mtb growth: 24%; RecA splice inh: 4.2

How did CC(C)C(=O)Nc1ccc(NC(=O)c2cccnc2)cn1 do in these assays?
Arbovirus inh: 10; Mtb bLac sens: -18; Mtb growth: 1%; RecA splice inh: -2.4; YopH inh: 18

How did O=C(COC(=O)Cc1ccsc1)NCC1CCCCC1 do in these assays?
Arbovirus inh: 0; Mtb bLac sens: 4; Mtb growth: -1%; RecA splice inh: 2.7; YopH inh: -21

What do the screens show for `COc1ccc(NC(=O)N2CCCCCC2)c(OC)c1`?
Arbovirus inh: 1; Mtb bLac sens: -2; Mtb growth: -4%; RecA splice inh: 0.5

Results for Cc1cc(S(=O)(=O)N2CCOCC2)ccc1OCC(=O)N1CCC(C(N)=O)CC1 ?
Mtb bLac sens: -2; RecA splice inh: -2.5

Results for CCCCNC(=O)c1onc(CSc2cc(C)ccc2C)c1C(=O)O ?
Arbovirus inh: 4; Mtb bLac sens: 100; Mtb growth: inconclusive; RecA splice inh: -1.1; YopH inh: -35

How did CCOCCn1c(SC)nc2c1c(=O)[nH]c(=O)n2C do in these assays?
Arbovirus inh: 10; Mtb bLac sens: 9; Mtb growth: -7%; RecA splice inh: 2.0; YopH inh: -30

What do the screens show for `c1ccc(CNC23CC4CC(CC(C4)C2)C3)nc1`?
Arbovirus inh: 9; Mtb bLac sens: 3; Mtb growth: 0%; RecA splice inh: -0.5

What do the screens show for `Cc1cc(Cl)c(S(=O)(=O)N2CCSCC2)cc1OCC(N)=O`?
Arbovirus inh: -1; Mtb bLac sens: -5; Mtb growth: -4%; RecA splice inh: 1.8; YopH inh: -19

What do the screens show for `CCC1=NN(C(=O)Cc2ccc([N+](=O)[O-])cc2)C(O)(C(F)(F)F)C1` (configuration not stated)?
Mtb bLac sens: 9; Mtb growth: 9%; RecA splice inh: 1.0

What do the screens show for `COc1ccc(CNC(=O)[C@@H]2CC=C[C@@H]3CCN(C4CCCCC4)C(=O)[C@@H]32)cc1`?
Mtb bLac sens: -9; Mtb growth: -8%; RecA splice inh: 1.4

What do the screens show for `CCOC1=C/C(=C/c2c(N)n3nc(CC(=O)N4CCCC4)sc3nc2=O)C=CC1=O`?
Mtb bLac sens: -6; RecA splice inh: 0.0

How did CC1Cc2ccccc2N1C(=O)c1cc2sccc2n1Cc1ccc(F)cc1 (configuration not stated) do in these assays?
Arbovirus inh: 14; Mtb bLac sens: -6; Mtb growth: 10%; RecA splice inh: 15; YopH inh: -23

Results for CS(=O)(=O)N(CC(=O)Nc1ccc(CC#N)cc1)c1ccc(C23CC4CC(CC(C4)C2)C3)cc1 ?
Arbovirus inh: -11; Mtb bLac sens: -2; Mtb growth: 4%; RecA splice inh: 1.0; YopH inh: -18

What do the screens show for `CCc1ccc(N2C(=O)C3C4CCC(C4=C(C)C)C3C2=O)cc1` (configuration not stated)?
Arbovirus inh: 7; Mtb bLac sens: 7; Mtb growth: 3%; RecA splice inh: 0.1; YopH inh: -33

What do the screens show for `Cc1c(-c2ccc(O)cc2)nc2nc(-c3ccccc3)c(-c3ccccc3)nn12`?
Mtb bLac sens: 20; Mtb growth: -2%; RecA splice inh: -8.4

Two compounds picked at random from the list so far:
How did CC(C)C(=O)Nc1ccc(NC(=O)c2cccnc2)cn1 do in these assays?
Arbovirus inh: 10; Mtb bLac sens: -18; Mtb growth: 1%; RecA splice inh: -2.4; YopH inh: 18

Results for Cc1cc(S(=O)(=O)N2CCOCC2)ccc1OCC(=O)N1CCC(C(N)=O)CC1 ?
Mtb bLac sens: -2; RecA splice inh: -2.5

Other results follow.
Results for CCc1ccc(C(=O)CSc2nc(C)cc(=O)[nH]2)cc1 ?
Arbovirus inh: -3; Mtb bLac sens: -8; Mtb growth: -2%; RecA splice inh: 2.8

Results for COc1ccc(NC(=O)/C=C/c2ccc(OC(F)F)cc2)cn1 ?
Mtb bLac sens: 86; RecA splice inh: 2.5

What do the screens show for `Cc1ccc(S(=O)(=O)c2nnn3c2nc(N2CCC(C(N)=O)CC2)c2ccccc23)cc1`?
Mtb bLac sens: -1; RecA splice inh: -5.0

How did COc1cccc2c1Oc1ncccc1N(C(=O)CCC(=O)NCc1ccccc1Cl)C2 do in these assays?
Mtb bLac sens: 3; RecA splice inh: 0.4

How did COc1ccc(CC(=O)N2CC(C)CC(C)C2)cc1OC (configuration not stated) do in these assays?
Arbovirus inh: 1; Mtb bLac sens: -2; Mtb growth: -1%; RecA splice inh: -0.2; YopH inh: -14

Results for O=C(NCCc1ccccc1)c1ccc(-c2ccc(F)cc2)o1 ?
Arbovirus inh: -3; Mtb bLac sens: -4; Mtb growth: 5%; RecA splice inh: 7.2

Results for CCn1c(/C=C/c2ccc(F)cc2)nc2ccccc2c1=O ?
Mtb bLac sens: 5; RecA splice inh: 0.4

How did Cc1cc(C)cc(N(CC(=O)N2CC=C(c3ccccc3)CC2)S(=O)(=O)c2c(C)noc2C)c1 do in these assays?
Arbovirus inh: -7; Mtb bLac sens: -4; Mtb growth: -7%; RecA splice inh: 6.8; YopH inh: -11

How did COc1ccc2[nH]c3c(N4CCc5ccccc5C4)ncnc3c2c1 do in these assays?
Mtb bLac sens: 89; RecA splice inh: 14

Results for CCOc1ccc(CNC(=S)N/N=C/c2cccnc2)cc1 ?
Arbovirus inh: 9; Mtb bLac sens: 3; Mtb growth: 5%; RecA splice inh: -4.2; YopH inh: -8

What do the screens show for `O=C(c1nn2c(C(F)(F)F)cc(-c3ccco3)nc2c1Br)N1CCCc2ccccc21`?
Arbovirus inh: -4; Mtb bLac sens: 22; Mtb growth: -4%; RecA splice inh: 2.6; YopH inh: -33

Results for CC(C)Cn1cc(F)c(=O)n(CC(C)C)c1=O ?
Arbovirus inh: 3; Mtb bLac sens: -9; Mtb growth: -1%; RecA splice inh: -0.9

How did COc1ccc(OCC(=O)Nc2ccc(S(=O)(=O)N3CCCC3)cc2)cc1 do in these assays?
Mtb bLac sens: -10; RecA splice inh: 0.7

Results for COc1ccc(N2CCc3c(C)nc4c(OC)cc(OC)cc4c32)cc1 ?
Arbovirus inh: -15; Mtb bLac sens: 51; Mtb growth: 19%; RecA splice inh: 5.6

What do the screens show for `COCCCNC(=O)c1cc2c(=O)n(C)c3ccccc3c2n1C`?
Arbovirus inh: -10; Mtb bLac sens: 1; Mtb growth: -1%; RecA splice inh: -1.7; YopH inh: -35; Arbovirus inh repeat: -15

How did CCC(=O)N/C(=N/c1nc(C)cc(C)n1)Nc1ccccc1 do in these assays?
Mtb bLac sens: -4; Mtb growth: 15%; RecA splice inh: 3.5

What do the screens show for `CCCC(=O)Nc1ccc(NC(=O)CCc2ccccc2)cn1`?
Arbovirus inh: -3; Mtb bLac sens: 0; Mtb growth: 3%; RecA splice inh: 3.1; YopH inh: -10
